Screening data: PubChem BioAssay, Broad Institute
Vaccinia inh: blocks a specific stage of Vaccinia orthopoxvirus infection; 0.01% of 89,000 active; activity change (mCherry), % (no concentration beside the values); Vaccinia-infected cells, mCherry/Venus stage reporter fluorescence; hits give low values; some inactives read as strong as hits;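 active means mCherry past -33% and 40 or more points under the early reporter, replicates agreeing; inconclusive means past -33% without that gap or agreement; tested in A549 cells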;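 further: scaled between vehicle wells and reference inhibitor wells; 23 nL library stock went into each well; one replicate is shown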
Vaccinia inh Venus: further read-out of Vaccinia inh, marked with its call; activity change (Venus), %; measured here: Venus reporter, other viral stage;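 negative = less Venus signal; first of two replicates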
The depositor's hits bear a star; u = inconclusive; x = no result given.

SMILES	Vaccinia inh	Vaccinia inh Venus
O=C(CCN1CCCCC1)N[C@@H]1CC[C@H](CC(=O)N2CCC(Cc3ccccc3)CC2)O[C@@H]1CO	-5	-6
COc1ccc2c3c([nH]c2c1)[C@H](CO)N(C(=O)Nc1ccc(F)cc1)CC31CN(CC2CCOCC2)C1	-9	-5
COc1cccc(S(=O)(=O)N(C)C[C@H]2Oc3cc(C#CCN(C)C)ccc3S(=O)(=O)N([C@@H](C)CO)C[C@H]2C)c1	-11	-14
Cc1noc(C)c1NC(=O)Nc1cccc2c1O[C@H](CN(C)S(=O)(=O)c1ccc(F)cc1)[C@H](C)CN([C@H](C)CO)C2=O	-2	-5
COc1ccc(S(=O)(=O)N(C)C[C@@H]2OCCCC[C@H](C)Oc3ccc(NS(C)(=O)=O)cc3C(=O)N([C@H](C)CO)C[C@@H]2C)cc1	10	1
COc1ccc(CN(C)C[C@@H]2Oc3c(NC(=O)Nc4ccc(C(F)(F)F)cc4)cccc3C(=O)N([C@@H](C)CO)C[C@H]2C)cc1	-30	-24
CCC(=O)Nc1ccc2c(c1)OC[C@@H](C)N(Cc1ccccc1)C[C@@H](C)[C@H](OC)CN(C)C2=O	-11	-14
C[C@@H]1CCCCO[C@@H](CN(C)C(=O)Nc2ccc(F)cc2)[C@H](C)CN([C@@H](C)CO)C(=O)c2cc(NC(=O)Nc3ccc4c(c3)OCO4)ccc2O1	-13	-10
Cc1ccc(-c2ccc3c(c2)O[C@@H](CN(C)Cc2cccnc2)[C@H](C)CN([C@H](C)CO)S3(=O)=O)cc1	u	x
CCCNC(=O)N1C[C@H]2[C@@H](c3ccccc31)[C@@H](CO)N2CC1CCCC1	2	8
CCCC(=O)Nc1ccc2c(c1)C(=O)N(C)C[C@H](OC)[C@@H](C)CN(Cc1ccccc1)[C@H](C)CO2	-18	-14
CC=Cc1ccc2n(c1=O)C[C@H]1[C@H](CO)[C@@H](C(=O)N3CCCCC3)N(Cc3ccccc3OC)[C@@H]21 (mixture of isomers)	-7	-7
C[C@@H]1CN([C@H](C)CO)C(=O)c2cc(C#Cc3ccccc3F)cnc2O[C@@H]1CN(C)C(=O)C1CCCCC1	u	x
COc1ccc(NC(=O)N(C)C[C@@H]2Oc3c(NC(=O)C4CCOCC4)cccc3C(=O)N([C@H](C)CO)C[C@@H]2C)cc1	10	15
Cc1ccccc1-c1ccc([C@H]2[C@@H](CO)N3CCCCN(C(=O)Nc4ccccc4)C[C@H]23)cc1	u	x
C[C@@H]1CN([C@H](C)CO)C(=O)c2cccc(NC(=O)CCCCCC(=O)Nc3ccccc3N)c2O[C@H]1CN(C)C(=O)Nc1ccc2c(c1)OCO2	11	4
C[C@@H]1CN([C@@H](C)CO)C(=O)c2cc(NS(=O)(=O)c3cccs3)ccc2O[C@@H](C)CCCCO[C@H]1CN(C)C(=O)Nc1ccc(F)cc1	1	-2
COCC(=O)Nc1ccc2c(c1)OC[C@@H](C)N(C)C[C@H](C)[C@H](OC)CN(C)C2=O	-5	-7
COc1ccc(CN(C)C[C@@H]2OCCCC[C@@H](C)Oc3ccc(NS(=O)(=O)c4ccc(F)cc4)cc3C(=O)N([C@H](C)CO)C[C@@H]2C)cc1	-6	-6
CC(C)NC(=O)N(C)C[C@H]1Oc2c(NC(=O)Nc3ccc(C(F)(F)F)cc3)cccc2C(=O)N([C@@H](C)CO)C[C@H]1C	u	x
C[C@H]1CN([C@@H](C)CO)C(=O)Cc2cc(NC(=O)Cc3ccccc3)ccc2O[C@@H]1CN(C)S(=O)(=O)c1ccc(F)cc1	10	11
CCCNC(=O)N1CC2(CN(Cc3cccc(OC)c3)C2)c2c(n(C)c3cc(OC)ccc23)[C@@H]1CO	u	x
C[C@H]1CCCCO[C@@H](CN(C)C(=O)c2ccccc2)[C@@H](C)CN([C@@H](C)CO)C(=O)c2cc(NC(=O)NC3CCCCC3)ccc2O1	u	x
Cc1ccc(S(=O)(=O)N[C@H]2C=C[C@H](CC(=O)N3CCN(c4ccccc4)CC3)O[C@@H]2CO)cc1	-15	-13
COc1ccc(C(=O)Nc2ccc3c(c2)OC[C@H](C)NC[C@H](C)[C@H](OC)CN(C)C3=O)cc1	-7	-4

An excerpt of these results, bar-delimited:
smiles | Vaccinia inh | Vaccinia inh Venus
CC=Cc1ccc2n(c1=O)C[C@H]1[C@H](CO)[C@@H](C(=O)N3CCCCC3)N(Cc3ccccc3OC)[C@@H]21 (mixture of isomers) | -7 | -7
C[C@@H]1CN([C@H](C)CO)C(=O)c2cc(C#Cc3ccccc3F)cnc2O[C@@H]1CN(C)C(=O)C1CCCCC1 | u | x
COc1ccc(NC(=O)N(C)C[C@@H]2Oc3c(NC(=O)C4CCOCC4)cccc3C(=O)N([C@H](C)CO)C[C@@H]2C)cc1 | 10 | 15
Cc1ccccc1-c1ccc([C@H]2[C@@H](CO)N3CCCCN(C(=O)Nc4ccccc4)C[C@H]23)cc1 | u | x
C[C@@H]1CN([C@H](C)CO)C(=O)c2cccc(NC(=O)CCCCCC(=O)Nc3ccccc3N)c2O[C@H]1CN(C)C(=O)Nc1ccc2c(c1)OCO2 | 11 | 4

Next part.
SMILES	Vaccinia inh	Vaccinia inh Venus
Cc1cc(C(=O)Nc2cccc3c2O[C@@H](CN(C)Cc2ccc(-c4ccccc4)cc2)[C@H](C)CN([C@@H](C)CO)C3=O)n(C)n1	u	x
Cc1noc(C)c1NC(=O)N(C)C[C@@H]1Oc2ccc(NS(=O)(=O)c3cn(C)cn3)cc2CC(=O)N([C@@H](C)CO)C[C@@H]1C	5	2
C[C@H](CO)N1C[C@H](C)[C@@H](CN(C)Cc2ccccc2)Oc2ncc(-c3ccccc3F)cc2C1=O	-6	-8
COc1ccc2c3c(n(C)c2c1)[C@H](CO)N(S(=O)(=O)c1ccccc1)CC31CCN(C)CC1	u	x
CC(C)CC#Cc1cnc2c(c1)C(=O)N([C@H](C)CO)C[C@@H](C)[C@@H](CN(C)C(=O)Nc1cc(F)ccc1F)O2	-15	-12
COc1ccc(S(=O)(=O)Nc2ccc3c(c2)C(=O)N([C@@H](C)CO)C[C@H](C)[C@H](CN(C)S(=O)(=O)c2ccc(F)cc2)O3)cc1	-1	-3
C[C@@H]1CCCCO[C@H](CN(C)C(=O)Nc2cccc3ccccc23)[C@@H](C)CN([C@@H](C)CO)C(=O)c2cc(NC(=O)Nc3ccc(F)cc3)ccc2O1	28	5
C[C@H]1CN([C@@H](C)CO)C(=O)c2cc(-c3ccccc3)cnc2O[C@@H]1CN(C)C(=O)Nc1ccccc1	0	-9
COc1ccccc1-c1ccccc1[C@@H]1[C@@H](C#N)N(C(=O)C2CC2)[C@@H]1CO	11	12
C[C@H](CO)N1C[C@H](C)[C@H](CN(C)Cc2ccc(C(=O)O)cc2)OCc2cnnn2CCCC1=O	32	22
C[C@@H]1CN([C@@H](C)CO)C(=O)c2cc(-c3ccccc3F)cnc2O[C@@H]1CN(C)Cc1ccccc1F	-28	-22
CCCN1[C@@H]2Cn3c(ccc(C4=CCCCC4)c3=O)[C@H]1[C@@H](C(=O)NCC)[C@@H]2CO	14	5
C[C@H](CO)N1C[C@H](C)[C@@H](CN(C)CC2CCCCC2)Oc2c(NS(=O)(=O)c3ccccc3)cccc2C1=O	-4	-4
COCC(=O)Nc1ccc2c(c1)OC[C@@H](C)N(C(=O)COC)C[C@@H](C)[C@@H](OC)CN(C)C2=O	21	15
Cc1ccc(S(=O)(=O)Nc2ccc3c(c2)C(=O)N(C)[C@@H]2CC[C@@H](CC(=O)NCCc4ccncc4)O[C@@H]2CO3)cc1	-1	0
C=CCOC(=O)[C@@H]1[C@H]2C(=O)O[C@H](c3ccccc3)[C@H](c3ccccc3)N2[C@H](c2ccc(OCCOC(=O)[C@@H]3C[C@@H]4C(=O)N[C@@H](CCCCNC(C)=O)C(=O)N4[C@@H]3c3ccc(O)cc3)cc2)[C@@]12C(=O)Nc1ccc(I)cc12	19	17
COc1ccc(NC(=O)N(C)C[C@@H]2OCCCC[C@H](C)Oc3ccc(NC(=O)c4ccccc4)cc3C(=O)N([C@H](C)CO)C[C@H]2C)cc1	-5	-5
O=C(Nc1ccccc1)N1CCCCN2[C@H](CO)[C@H](c3ccc(Br)cc3)[C@@H]2C1	0	0
COc1ccc(NC(=O)N(C)C[C@H]2OCCCC[C@H](C)Oc3ccc(NC(=O)Nc4ccc(C(F)(F)F)cc4)cc3C(=O)N([C@@H](C)CO)C[C@@H]2C)cc1	-18	-1
O=C(C[C@@H]1C[C@H]2c3cc(NC(=O)NC4CCCC4)ccc3O[C@H]2[C@H](CO)O1)NCCN1CCCCC1	14	9
Cc1noc(C)c1S(=O)(=O)Nc1ccc2c(c1)C(=O)N([C@H](C)CO)C[C@H](C)[C@H](CN(C)C(=O)NC1CCCCC1)OCCCC[C@H](C)O2	-9	-3
C[C@@H]1CN([C@@H](C)CO)C(=O)c2cccc(NS(=O)(=O)c3ccc(F)cc3)c2O[C@@H]1CN(C)Cc1ccc2c(c1)OCO2	3	9
COc1ccc2c3c([nH]c2c1)[C@@H](CO)N(Cc1cc(F)ccc1F)CC31CCN(C(=O)C2CCC2)CC1	15	3
COc1cccc(S(=O)(=O)N(C)C[C@H]2Oc3cc(C#CCC(C)C)ccc3S(=O)(=O)N([C@@H](C)CO)C[C@@H]2C)c1	-4	-5
C#CCNC(=O)C1=C[C@H](c2cn(C(C)=O)c3ccccc23)C[C@H](OCCCCO)O1	-9	-8

Continued, overlapping the part above by 4 compounds.
SMILES	Vaccinia inh	Vaccinia inh Venus
C[C@@H]1CN([C@@H](C)CO)C(=O)c2cccc(NS(=O)(=O)c3ccc(F)cc3)c2O[C@@H]1CN(C)Cc1ccc2c(c1)OCO2	3	9
COc1ccc2c3c([nH]c2c1)[C@@H](CO)N(Cc1cc(F)ccc1F)CC31CCN(C(=O)C2CCC2)CC1	15	3
COc1cccc(S(=O)(=O)N(C)C[C@H]2Oc3cc(C#CCC(C)C)ccc3S(=O)(=O)N([C@@H](C)CO)C[C@@H]2C)c1	-4	-5
C#CCNC(=O)C1=C[C@H](c2cn(C(C)=O)c3ccccc23)C[C@H](OCCCCO)O1	-9	-8
CN(C)CC#Cc1ccc([C@@H]2[C@H]3CN(C(=O)Nc4ccc(F)cc4)CCCCN3[C@H]2CO)cc1	21	5
C[C@@H]1CCCCO[C@@H](CN(C)Cc2ccccc2)[C@H](C)CN([C@@H](C)CO)C(=O)c2cc(NC(=O)NC3CCCCC3)ccc2O1	u	x
C[C@H](CO)N1C[C@H](C)[C@@H](CN(C)Cc2ccc3c(c2)OCO3)Oc2ccc(N(C)C)cc2C1=O	4	-2
C[C@@H]1CN([C@@H](C)CO)S(=O)(=O)c2ccc(C3=CCCC3)cc2O[C@H]1CN(C)Cc1ccccn1	-10	-18
O=C(c1cnccn1)N1CC(=O)N2[C@@H](CO)[C@H](c3ccc(/C=C/c4ccccc4)cc3)[C@@H]2C1	9	13
O=C(C[C@@H]1CC[C@@H](NC(=O)C2CC2)[C@H](CO)O1)Nc1ccccc1	-4	-7
COc1ccc2c3c([nH]c2c1)[C@H](CO)N(S(=O)(=O)c1ccc(C)cc1)CC31CN(C(=O)Cc2cccnc2)C1	26	2
O=C(C[C@H]1CC[C@@H](NC(=O)c2ccncc2)[C@@H](CO)O1)NCC1CC1	3	0
CO[C@H]1O[C@H](CO)[C@@H](OC(=O)Nc2ccccc2)[C@H](OC(=O)Nc2ccc3c(c2)OCO3)[C@H]1OC(=O)Nc1ccc2c(c1)OCO2	-17	-22
Cc1ccccc1S(=O)(=O)N[C@H]1CC[C@H](CCn2cc(-c3ccccc3)nn2)O[C@@H]1CO	-15	-11
C[C@@H]1CN([C@H](C)CO)C(=O)c2cccc(NS(=O)(=O)c3ccccc3)c2O[C@@H]1CN(C)S(C)(=O)=O	10	5
C[C@@H]1CN([C@H](C)CO)C(=O)c2c(c3ccccc3n2C)-c2ccccc2CO[C@H]1CN(C)C(=O)Nc1cccc(F)c1	-31	-16
COc1cccc(S(=O)(=O)N(C)C[C@@H]2Oc3ncc(-c4ccccc4)cc3C(=O)N([C@H](C)CO)C[C@@H]2C)c1	-6	-8
O=C(Nc1ccc(F)cc1)N1C[C@@H]2[C@H](c3ccccc31)[C@H](CO)N2Cc1ccccc1Cl	-6	2
O=C(NCC[C@@H]1CC[C@@H](NC(=O)c2cccnc2)[C@@H](CO)O1)Nc1ccc(Cl)cc1	-2	10
CC(C)NC(=O)Nc1ccc2c(c1)CC(=O)N([C@@H](C)CO)C[C@H](C)[C@@H](CN(C)Cc1ccc3c(c1)OCO3)O2	-1	-1
C[C@H](CO)N1C[C@H](C)[C@@H](CN(C)Cc2ccc3c(c2)OCO3)Oc2ccc(NC(=O)Cc3ccccc3)cc2CC1=O	u	x
C[C@@H]1CN([C@H](C)CO)C(=O)c2cc(NS(=O)(=O)c3ccc(F)cc3)ccc2O[C@@H](C)CCCCO[C@H]1CN(C)S(=O)(=O)c1ccccc1	u	x
C[C@@H]1CN([C@H](C)CO)C(=O)c2ccccc2-c2ccccc2CO[C@H]1CN(C)C(=O)Cc1ccccc1	3	0
C[C@H](CO)N1C[C@H](C)[C@@H](CN(C)Cc2ccc(Oc3ccccc3)cc2)Oc2cc(Br)ccc2S1(=O)=O	-25	-19
CCC(=O)N1[C@@H](CO)[C@H](c2ccccc2)C12CN(C(=O)c1cnccn1)C2	0	16
CN1C(=O)c2cc(NC(=O)Nc3ccc(F)cc3)ccc2OC[C@H]2O[C@@H](CC(=O)NC3CCC3)CC[C@@H]21	8	2
CCC(=O)N1C[C@H](C)[C@@H](OC)CN(C)C(=O)c2cc(NC(=O)c3ccccc3)ccc2OC[C@@H]1C	4	8
COc1cccc(S(=O)(=O)N(C)C[C@@H]2Oc3cc(C4=CCCC4)ccc3S(=O)(=O)N([C@H](C)CO)C[C@@H]2C)c1	u	x
C[C@H](CO)N1C[C@H](C)[C@H](CN(C)S(=O)(=O)c2ccc(Cl)cc2)Oc2ccc(NC(=O)CCCN(C)C)cc2C1=O	-2	1
C[C@H]1CCCCO[C@H](CN(C)Cc2ccc(Cl)c(Cl)c2)[C@@H](C)CN([C@@H](C)CO)C(=O)c2cc(NC(=O)NC3CCCCC3)ccc2O1	-13	-11

These rows are one share of the data. The share of hits here may be higher or lower than overall.
